Source: PubChem
FGF22 binding: binders of human FGF22 protein, primary screen, FGF22 synaptogenesis inhibitor project, biophysical, thermal shift, single point. Fibroblast growth factor 22 (Homo sapiens), Q9HCT0. recombinant FGF22 thermal shift, SYPRO orange fluorescence; percent of sucrose octasulfate shift, DMSO zero. calls only at 9.99 µM. 340,000 compounds, 1.5% hits;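 active = melting point raised past a set limit in the mean and every replicate; inconclusive = no clear call; three in four hits are not shown here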
Target sequence (Q9HCT0 whole entry, looked up): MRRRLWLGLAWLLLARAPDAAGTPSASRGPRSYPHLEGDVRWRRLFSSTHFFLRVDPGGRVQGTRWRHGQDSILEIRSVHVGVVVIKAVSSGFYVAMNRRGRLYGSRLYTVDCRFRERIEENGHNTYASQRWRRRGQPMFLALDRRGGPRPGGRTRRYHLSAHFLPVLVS
HNF4A DNA FP: change in binding of human HNF4A to DNA, primary screen, biochemical, fluorescence polarization, FITC-DNA; AID 1224865, 2016; Hepatocyte nuclear factor 4-alpha (Homo sapiens), P41235; 1 h; 360,000 compounds, 0.3% hits; activity change, % at 10 µM; in the data active = activity change above about 30%, passing the limit was not always enough;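 note: controls were the assay level and a saturating level of protein; the project sought stronger binding though the title names inhibitors; some compounds called inactive have numbers as strong as hits; positive values seem to mean higher polarization but the record does not say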
UCH37 inh: inhibitors of human UCH37 deubiquitinase, primary screen, biochemical, Ub-AMC cleavage, fluorescence; Ubiquitin carboxyl-terminal hydrolase isozyme L5 (Homo sapiens), Q9Y5K5; purified proteasome/UCH37; inhibition, % (no concentration beside the values); 330,000 compounds, 0.33% hits;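 active = mean of two replicates above 20%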;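 note: 0% = compound-free wells with enzyme and 100% = wells lacking proteasome; stock transfer was 100 nL into about 20 µL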
Target sequence (Q9Y5K5 whole entry, looked up): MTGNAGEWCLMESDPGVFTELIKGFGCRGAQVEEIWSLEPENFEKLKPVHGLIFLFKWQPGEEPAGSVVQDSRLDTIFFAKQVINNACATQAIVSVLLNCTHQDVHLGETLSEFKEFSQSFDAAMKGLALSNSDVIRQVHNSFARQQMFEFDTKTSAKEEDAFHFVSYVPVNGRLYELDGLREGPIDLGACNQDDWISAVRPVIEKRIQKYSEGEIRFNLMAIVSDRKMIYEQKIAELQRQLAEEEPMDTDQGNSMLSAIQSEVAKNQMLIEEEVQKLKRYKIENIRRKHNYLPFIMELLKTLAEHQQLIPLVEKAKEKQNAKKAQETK
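Reagent: Ub-AMC substrate; assay system: Proteasome-associated human UCH37 deubiquitinase; controls: no-proteasome and no-compound wells; read-out: % inhibition of Ub-AMC cleavage fluorescence; timing: 30 min preincubation with enzyme, 25 min cleavage at room temperature; signal: AMC fluorescence from Ub-AMC cleavage, excitation 355 nm, emission 460 nm; buffer or medium: Tris-HCl pH 7.4 plus ovalbumin, ATP-MgCl2, DTT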
Vif TR-FRET: inhibitors of Vif binding to APOBEC3G peptide, primary screen, biochemical, TR-FRET, GST-Vif 1-94, biotin-A3G peptide, dose response retest (AID 1117319); TR-FRET GST-Vif / biotin-A3G peptide binding; higher % means a stronger effect; test concentration not given here; strong numbers were not always called active; 260,000 compounds, 0.57% hits; one-dose inhibition, %; IC50 in µM for titrated hits; Virion infectivity factor (Human immunodeficiency virus type 1 group M subtype B (isolate …;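 active = above the screen mean plus three standard deviations and confirmed in dose response; inconclusive = results disagree or hit not tested in dose response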;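 note: Vif residues 1-94 fused to GST binding biotinylated APOBEC3G peptide 110-148; 0% = full assay without inhibitor and 100% = GST in place of GST-Vif; retest series ran down from 100 µM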
Ecoli growth: E. coli growth inhibition, primary screen, OD600 | 330,000 compounds, 0.21% hits | Escherichia coli growth, 23 h; active compounds read low | OD600 absorbance (no concentration beside the values) | AID 1053175, 2014;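 active = OD600 absorbance below the run mean of sample wells minus 3.6 SD, in any replicate, cut at about 0.56 in these data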;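 note: stock transfer was 300 nL into about 60 µL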
AF4-AF9 inh: inhibitors of AF4 peptide binding to AF9, primary screen, biochemical, AlphaScreen, biotin-AF4 peptide, FLAG-AF9, single point; inhibition, % at 10 µM; 350,000 compounds, 0.47% hits;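 active = every replicate reaching a set inhibition limit, whatever the replicate mean, cut at about 25% in these data; inconclusive = mean inhibition reaches that limit but some replicates miss it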;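 note: 0% = plate neutral control median and 100% = total signal loss; the record names both 10 and 1 µM as test concentration; the first replicate is given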
Target sequence (P42568 whole entry, looked up): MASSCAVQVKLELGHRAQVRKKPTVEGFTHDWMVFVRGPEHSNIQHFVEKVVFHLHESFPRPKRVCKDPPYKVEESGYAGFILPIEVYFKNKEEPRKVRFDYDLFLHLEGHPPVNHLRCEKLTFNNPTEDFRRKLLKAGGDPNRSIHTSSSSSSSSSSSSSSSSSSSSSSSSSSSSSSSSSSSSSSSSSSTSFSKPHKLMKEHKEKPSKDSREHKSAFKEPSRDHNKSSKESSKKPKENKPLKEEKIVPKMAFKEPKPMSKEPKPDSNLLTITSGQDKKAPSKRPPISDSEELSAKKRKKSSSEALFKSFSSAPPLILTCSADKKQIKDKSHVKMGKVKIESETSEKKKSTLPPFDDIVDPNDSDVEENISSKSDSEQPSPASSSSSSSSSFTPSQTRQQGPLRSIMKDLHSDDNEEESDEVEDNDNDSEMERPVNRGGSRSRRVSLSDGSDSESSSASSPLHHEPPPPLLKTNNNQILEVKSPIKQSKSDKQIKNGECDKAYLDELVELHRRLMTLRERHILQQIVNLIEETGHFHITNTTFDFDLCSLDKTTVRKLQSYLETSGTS
RanGTP-Imp inh: inhibitors of RanGTP-importin-beta interaction, primary screen, biochemical, FRET, CFP-Ran, YFP-importin-beta, homogeneous; cell-free CFP-Ran/YFP-importin-beta FRET ratio; inhibition, % (no concentration beside the values); 300,000 compounds, 1.1% hits;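 active = most replicates above 15%; inconclusive = exactly half above 15%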;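 note: 0% = DMSO wells and 100% = Ran loaded with GDP instead of GTP; wells of about 40 µL received 100 nL stock; the first replicate is given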
* marks the source's active call; other numbers are inactive results; i = inactive; u = inconclusive; x = no result given; & = joins results of further samples.

Results follow in this order: FGF22 binding | HNF4A DNA FP | UCH37 inh | Vif TR-FRET | Ecoli growth | AF4-AF9 inh | RanGTP-Imp inh
> CC1(C)Cc2nc(Cl)c(C(=O)O)cc2CO1
    i | -1.3 | 4.9 | 16.0% | 0.669 | -3.7 | u
> CCc1cc(C(=O)N(CC)CC(=O)Nc2ccc(OC)cc2)sc1C
    i | -2.1 | 2.6 | 5.4% | 0.655 | 0.4 | x
> Cc1ncc(CN2CCCC(C(=O)Nc3ccc(-c4cccc(F)c4)cc3)C2)n1C (stereo not given)
    i | 1.1 | 2.3 | -3.4% | 0.622 | 11.9 | 6.9
> CCCCN1C(=O)NC(c2cccc([N+](=O)[O-])c2)C(C(=O)OCC)=C1C (stereo not given)
    i | -2.8 | 3.6 | x | 0.727 | 7.1 | -3.4
> Cc1ccc(CSc2nnc(Nc3ccc(C)cc3)s2)cc1
    x | -1.7 | -0.1 | -0.2% | 0.736 | x | 1.2
> CN(C)CCC(O)(c1ccccc1)c1ccccc1
    x | 1.5 | -1.1 | -1.1% | 0.715 | x | 1.1
> CCOC(=O)Nc1ccc2c(c1)N(C(=O)CCN1CCOCC1)c1ccccc1S2=O (stereo not given)
    x | -0.4 | 3.1 | -2.8% | 0.666 | x | -4.1
> CCOc1ccc(S(=O)(=O)N2CCN(Cc3ccccc3)CC2)c2cccnc12
    x | 1.7 | 0.7 | 1.9% | 0.674 | x | 7.4
> CCCCOC(=O)/C(=C/C=C/c1ccccc1)NC(=O)c1ccccc1
    i | -0.6 | 1.5 | 28.0% | 0.648 | 5.1 | -0.1
> COc1ccc(CNC(=O)C(=O)NCC2CCCN2S(=O)(=O)c2ccccc2)cc1 (stereo not given)
    i | 2.6 | 3.7 | 0.1% | 0.702 | 2.5 | -0.2
> Cc1ccccc1OCCSc1nnc(-c2cccnc2)n1N
    i | 0.6 | 3.0 | 23.8% | 0.673 | 1.4 | 2.3
> Nc1ccccc1NC(=O)CCn1c(=S)[nH]c2ccccc2c1=O
    i | -0.1 | -0.8 | -0.8% | 0.642 | -1.1 | -3.3
> O=S(=O)(N1CCCCC1)N1CCN(S(=O)(=O)N2CCCCC2)CC1
    x | 2.0 | 3.0 | 5.6% | 0.682 | x | 2.2
> C#CC1(O)CCC2C3CCc4cc(O)cc(C)c4C3CCC21C (stereo not given)
    i | -2.4 | 3.3 | -6.0% | 0.683 | 9.9 | x
> CCC(CC)c1nnc(NC(=O)[C@@H](NC(=O)c2cccc(C)c2)C(C)C)s1
    i | 2.2 | 2.8 | x | 0.729 | -10.6 | -4.0
> Cc1ccc(S(=O)(=O)N/N=C\C=C\c2ccccc2)cc1
    i | -1.6 | x | 14.8% | x | 2.3 | -0.3
> COc1ccccc1-n1nnnc1SCC(=O)Nc1cc(C)on1
    x | 0.6 | 2.5 | 2.7% | 0.725 | x | -2.0
> CC1CCN(CC(=O)Nc2nn(-c3ccccc3)nc2C(N)=O)CC1
    x | -1.6 | 1.5 | x | 0.709 | x | 4.1
> CC(CNC(=O)CC[C@H]1O[C@@H](n2ccc(=O)[nH]c2=O)[C@H](O)[C@@H]1O)c1ccccc1 (stereo not given in full)
    i | -0.7 | x | x | x | -2.1 | x
> O=C(NC(=S)Nc1ccccc1N1CCOCC1)c1cccc([N+](=O)[O-])c1
    i | -1.8 | 1.2 | x | 0.717 | 2.7 | -4.3
> CCOc1ccc(NC(=O)NCCCSC2CCCCC2)cc1
    x | -0.9 | 6.7 | -0.3% | 0.644 | x | -1.9
> CN1CCN(c2c([N+](=O)[O-])cnc3ccccc23)CC1
    i | 2.5 | 8.6 | x | 0.664 | 2.6 | -1.9
> COc1ccc(C(=O)Cn2cc([N+](=O)[O-])nc2C)cc1
    i | 2.4 | 5.6 | -3.1% | 0.674 | -0.8 | -1.4
> CC(=O)N[C@H]1[C@H](OCc2ccccc2F)O[C@H](COC(C)=O)[C@@H](OC(C)=O)[C@@H]1OC(C)=O
    i | -2.3 | 1.0 | 10.0% | 0.708 | 0.0 | u
> COc1ccc(-n2c(Cc3cccn3C)nnc2SCC(=O)Nc2ccc(C)c(Cl)c2)cc1
    i | 3.3 | 3.0 | 23.1%&-6.4% | 0.747 | 2.5 | 0.6
> COc1cc(/C=C2/C(=N)N3C=CSC3=NC2=O)ccc1OCCCOc1c(C)cccc1C
    i | 4.2 | -44.9 | 0.5% | 0.687 | 4.5 | 0.9
> CC(=O)N1c2ccccc2C2(C)C(C1(C)C)C2(Cl)Cl (stereo not given)
    i | 0.1 | 5.9 | -4.7% | 0.724 | -0.7 | -1.2
> Cc1nc2sccn2c(=O)c1S(=O)(=O)Nc1cccc(Cl)c1C
    i | 0.6 | 3.0 | x | 0.756 | -5.1 | 2.2
> COc1cccc(C(NC(C)=O)c2nc(-c3csc4ccccc34)cs2)c1 (stereo not given)
    i | 6.8 | x | x | x | -2.1 | x
> COc1cccc(C2C(C(C)=O)=C(C)Nc3ncnn32)c1 (stereo not given)
    x | 3.6 | 4.1 | -2.0% | 0.7 | x | -2.8

Looked up one by one from above (two):
Results follow in this order: FGF22 binding | HNF4A DNA FP | UCH37 inh | Vif TR-FRET | Ecoli growth | AF4-AF9 inh | RanGTP-Imp inh
> COc1cc(/C=C2/C(=N)N3C=CSC3=NC2=O)ccc1OCCCOc1c(C)cccc1C
    i | 4.2 | -44.9 | 0.5% | 0.687 | 4.5 | 0.9
> CC1(C)Cc2nc(Cl)c(C(=O)O)cc2CO1
    i | -1.3 | 4.9 | 16.0% | 0.669 | -3.7 | u

Carrying on:
Results follow in this order: FGF22 binding | HNF4A DNA FP | UCH37 inh | Vif TR-FRET | Ecoli growth | AF4-AF9 inh | RanGTP-Imp inh
> CSc1sc(-c2nnc(SCC(=O)Nc3ccccc3)n2C)c2c1C=CCC2
    i | 1.2 | -20.7 | -63.4% | 0.683 | 1.4 | 4.9
> CC(C)(NC(=O)NC(CO)c1ccccc1)c1cccc(C(C)(C)NC(=O)NC(CO)c2ccccc2)c1 (stereo not given)
    i | -1.4 | 3.5 | x | 0.692 | -2.9 | -0.1
> CC(=O)OCC(=O)Nc1cc(S(=O)(=O)N2CCCCCC2)ccc1Cl
    i | -1.6 | 2.4 | 11.4% | 0.659 | 1.5 | 7.7
> CC(=O)Nc1ccc(-c2csc(N/N=C\c3ccncc3)n2)cc1
    i | 7.4 | x | x | x | 2.5 | -5.7
> CN(C(=O)c1ccccc1OCc1ccc(Cl)cc1)c1ccccc1
    i | -0.7 | 3.7 | x | 0.653 | 0.0 | 3.5
> O=C(NC12CC3CC(CC(C3)C1)C2)C1=COCCO1
    x | 2.5 | -0.5 | 3.3% | 0.677 | x | -6.1
> Cc1c(Br)c(C(F)(F)F)nn1CC(=O)N1CCCC1
    x | 0.0 | 1.7 | 3.1% | 0.688 | x | 0.4
> CN1CCN(C(=O)c2cn(C)c3ccc(S(=O)(=O)N(C)C4CCCCC4)cc3c2=O)CC1
    i | -4.9 | 3.6 | 0.2% | 0.72 | -1.3 | x
> CCN1CCC(NC(=O)Nc2ccc(F)cc2)CC1
    i | -1.4 | 5.0 | -2.9% | 0.706 | -1.6 | -0.3
> COc1ccccc1N1CCN(C2CCCN(C(=O)c3cccc(-c4ccco4)c3)C2)CC1 (stereo not given)
    i | 4.1 | 0.6 | x | 0.647 | 10.9 | 3.3
> COc1ccccc1CNc1ccc(C(=O)O)cc1
    x | 2.7 | 6.1 | -3.3% | 0.721 | x | 1.3
> CN1CCCN(C(=O)CNC(=O)c2ccccc2F)CC1
    i | -0.2 | 4.1 | x | 0.701 | -10.1 | x
> Cc1ccc(C)n1-c1ccc(N2CCOCC2)nc1
    i | 3.7 | -11.3 | 29.1% | 0.722 | 9.0 | 3.6
> CC(SCc1ccc(C(=O)O)o1)c1ccc(C(=O)O)o1 (stereo not given)
    i | 1.7 | 1.0 | 1.1% | 0.657 | -1.2 | 2.4
> O=C(O)COc1ccc(/C=C/C(=O)c2ccc(C3CCCCC3)cc2)cc1
    i | -4.1 | x | x | x | 2.4 | 1.1
> Cc1ccccc1-n1nnnc1SCC(=O)NNC(=O)c1ccc(NC(=O)CC#N)cc1
    i | -5.6 | 0.3 | -4.3% | 0.655 | -1.1 | x
> Cc1c(NC(=O)c2cc(-c3cccs3)on2)c(=O)n(-c2ccccc2)n1C
    i | -4.7 | 2.1 | 39.9µM* | 0.64 | -1.5 | -9.1
> CCOc1ccc2nc(SCC(=O)NC(=O)NCc3ccco3)[nH]c2c1
    x | -8.3 | 5.2 | 23.9% | 0.668 | x | 0.5
> Cc1ccccc1Nc1nc(N)nc(CSCC(=O)Nc2cccc(Br)c2)n1
    i | 1.6 | 3.8 | 2.0% | 0.682 | 2.7 | -2.1
> O=C(CN1CCCC1)NC(=O)NC1CCCC1
    i | 3.2 | 5.7 | -1.2% | 0.69 | -0.1 | -1.0
> COc1ccc(NC(=O)CN(C)C(=O)c2cccc(S(=O)(=O)N3CCN(Cc4ccccc4)CC3)c2)cc1
    x | 2.0 | 0.9 | x | 0.711 | x | -2.4
> C[N+](C)(CCOc1ccccc1)Cc1ccccc1 (tested in a mixture with another compound)
    i | -4.2 | 3.0 | x | 0.691 | -10.4 | -3.7
> CCNc1nc(SC(C)C(=O)Nc2ccccc2)nc(N2CCOCC2)n1 (stereo not given)
    x | -2.0 | 0.3 | -1.5% | 0.719 | x | 0.1
> COC(=O)C1=C(C(=O)OC)SC(=C2C(=S)C(C)(C)N(C(=O)C3CC3)c3ccccc32)S1
    x | -0.6 | 10.6 | 20.4% | 0.759 | x | -4.9
> CCCn1cnc2cc(NC(=O)c3ccco3)ccc21
    i | -7.2 | 0.3 | x | 0.67 | 0.6 | 4.8
> COc1ccc(CNCC(=O)Nc2cccc(S(N)(=O)=O)c2)cc1
    i | 6.4 | 2.8 | 3.6% | 0.708 | -0.2 | 0.2
> CCc1ccc(CNC(=O)c2ccc(OC3CCN(C(=O)COC)CC3)cc2)nc1
    i | 0.7 | -0.7 | x | 0.728 | -1.2 | 1.4
> Cc1cccc2cc(-c3ccccc3)c(-c3ccccc3)c[n+]12
    i | -4.1 | -3.2 | 6.83µM* | 0.653 | 8.2 | -4.0
> Cc1cc(C)cc(NC(=O)c2cc(C)n(Cc3cccs3)c2C)c1
    i | 1.0 | 0.9 | 1.5% | 0.684 | 1.6 | 0.7
> COc1ccc(S(=O)(=O)N2CCC[C@H]2C(=O)N2CCC[C@H]2C(=O)NCc2ccccn2)cc1C
    i | 0.1 | x | x | x | -4.5 | x

(list continues)
Results follow in this order: FGF22 binding | HNF4A DNA FP | UCH37 inh | Vif TR-FRET | Ecoli growth | AF4-AF9 inh | RanGTP-Imp inh
> O=S(=O)(Nc1cccc(S(=O)(=O)N2CCCC2)c1)c1ccc(Cl)cc1
    i | -4.0 | 0.2 | x | 0.673 | -1.2 | x
> COC(=O)c1ccc2nc(C)c(C)nc2c1
    x | 5.2 | 3.5 | -7.9% | 0.712 | x | -0.5
> O=C(c1ccccc1)c1ccc(OCC(O)CNCc2ccc(Cl)cc2)cc1 (stereo not given)
    i | 0.2 | 2.3 | -2.1% | 0.553 | 1.1 | 1.4
> COC(=O)c1ccc(Cl)c(NC(=O)CSc2ncn[nH]2)c1
    x | -4.5 | 5.0 | 0.0% | 0.708 | x | 3.0

Not all compounds are listed (hit frequency here may not be typical).
